Compound activity as filed in PubChem.
VDR inhibitor: Inhibitors of the vitamin D receptor (VDR): qHTS; Vitamin D3 receptor (Homo sapiens), P11473; VDR-SRC2-3 peptide fluorescence polarization, 2 h; Potency, µM, inactives show max response, negative = inhibition, actives largely listed as inhibitors; 400,000 compounds, 0.93% hits; active = well fitted inhibition curve with a large enough effect; inconclusive = small, poorly fitted or top-dose-only effect, or another doubt; inactive = no such curve, though single readings can be large or run the other way; note: series mostly up to about 120 µM
Target sequence (P11473 whole entry, looked up): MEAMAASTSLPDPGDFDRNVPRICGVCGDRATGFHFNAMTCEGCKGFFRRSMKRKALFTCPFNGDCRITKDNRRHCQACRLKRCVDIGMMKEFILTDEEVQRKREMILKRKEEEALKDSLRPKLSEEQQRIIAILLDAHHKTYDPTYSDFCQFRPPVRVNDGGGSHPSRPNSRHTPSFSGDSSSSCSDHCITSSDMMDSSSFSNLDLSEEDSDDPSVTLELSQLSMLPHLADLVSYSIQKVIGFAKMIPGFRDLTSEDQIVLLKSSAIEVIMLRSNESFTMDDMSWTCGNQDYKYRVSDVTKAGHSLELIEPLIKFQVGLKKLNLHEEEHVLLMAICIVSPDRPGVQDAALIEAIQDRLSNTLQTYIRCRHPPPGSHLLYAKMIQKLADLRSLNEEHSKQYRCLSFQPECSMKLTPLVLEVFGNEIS
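Compounds are added to VDR with labelled SRC2-3 coactivator peptide and held 2 h at room temperature. Inhibition of the VDR–peptide interaction is then read as a change in fluorescence polarization.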
Active calls of the source: *; u = inconclusive; & = joins results of further samples. % is set by controls: 0 for no effect and ±100 for the full control effect; potency is the fitted concentration of half-maximal effect. An excerpt; count on the stated rates, not on these rows.

SMILES	VDR inhibitor
CC(O)CCC(=O)NNC1CC(=O)N(c2ccccc2)C1=O (centres undefined)	-15%
CSc1ccccc1NC(=O)CN(C)CC(=O)Nc1ccc(N2CCOCC2)cc1	8%
CN1CCN(C(=O)c2ccccc2N(Cc2ccccc2)S(C)(=O)=O)CC1	9%
C=CCOc1c(Br)cc(CNn2nnnc2N)cc1OCC	-6%
Cc1cc2ncc(S(C)(=O)=O)c(N)n2n1	-4%
Cc1cc(C)c(S(=O)(=O)N2CCN=C2c2ccccc2)c(C)c1	-10%
Fc1ccc(N2CCN(c3ccc4c(C(F)(F)F)cc(C(F)(F)F)nc4n3)CC2)cc1	-3%
CCCCN1C(=O)N(c2ccc(Cl)cc2)C(C)(O)CC1(C)C (centres undefined)	4%
O=C(CCc1c[nH]c2ccccc12)NCc1ccncc1	-6%
O=C(CC1SC(=Nc2ccccc2)N(Cc2ccccn2)C1=O)Nc1cccc(Cl)c1 (centres undefined)	-8%
CCN(CC)CCNC(=O)c1ccc2c(=O)n(CCc3ccccc3)c(=O)[nH]c2c1	-14%
COC(=O)c1ccc(Cn2cc(/C=C\[N+](=O)[O-])c3ccccc32)o1	25µM*
COc1ccc(CCn2ccc(O)c(Cc3ccc(Cl)cc3)c2=O)cc1OC	3%
CC(C)OC(=O)CSc1nc(-c2ccc(F)cc2)nc2ccc(F)cc12	-6%
Clc1ccc2nc(N3CCN(c4ccccc4)CC3)sc2c1	14%
COc1ccccc1C1/C(=C(/O)c2ccccc2)C(=O)C(=O)N1CCO (centres undefined)	5%
COc1cc(C2C3=C(CC(C)(C)CC3=O)N(C)C(=O)N2C)cc(OC)c1OC (centres undefined)	7%
O=C(Nc1ccc(Br)cc1Cl)c1cnccn1	1%
CC(NC(=O)c1ccccc1NC(=O)c1ccccc1)C(=O)N1CCOCC1 (centres undefined)	-9%
OCC1(CCOc2ccccc2)CCN(Cc2nc3ccc(F)cc3[nH]2)CC1	10%

Four of the compounds above, as comma-separated lines.
SMILES,VDR inhibitor
O=C(Nc1ccc(Br)cc1Cl)c1cnccn1,1%
C=CCOc1c(Br)cc(CNn2nnnc2N)cc1OCC,-6%
CCCCN1C(=O)N(c2ccc(Cl)cc2)C(C)(O)CC1(C)C (centres undefined),4%
COc1cc(C2C3=C(CC(C)(C)CC3=O)N(C)C(=O)N2C)cc(OC)c1OC (centres undefined),7%

Further entries:
SMILES	VDR inhibitor
COc1cccc(C(=O)N2CCC(C(=O)NCc3ccco3)CC2)c1	4%
OCC1(Cc2ccccc2C(F)(F)F)CCN(Cc2cccc3cnccc23)CC1	-10%
O=C(Nc1ccc(N2CCOCC2)cc1)c1cn2ccccc2n1	-11%
O=C(NC(=O)c1ccccc1)Nc1ccc(-c2cc(C(F)(F)F)nn2-c2ccccc2)cc1	-10%
CC(C)C[C@H](NC(=O)c1nc[nH]c1C(=O)NCCCCCNC(=O)OC(C)(C)C)C(=O)OC(C)(C)C	8%
COc1cc(Cl)c(C)cc1NC(=O)c1cc2c(Cl)nc3ccc(C)cc3c2s1	-29%
CCn1c(=O)c(C(=O)Nc2ccccc2F)c(O)c2ccccc21	-4%
CCN(CC)c1ccc(CNc2nc3ccccc3n2CCN2CCOCC2)cc1	-9%
CCCC(=O)Nc1ccc(C(=O)N/N=C/c2ccc[nH]2)cc1	11%
Cc1ccc(SCC(=O)NNC(=O)CNC(=O)c2ccccc2F)cc1	-2%
CN(C)S(=O)(=O)c1ccc(-c2cn3ccccc3n2)cc1	-17%
NC(=O)c1c(NC(=O)c2ccccc2)sc2c1CCC2	u
Cc1nn(C)c(C)c1S(=O)(=O)N(CC(=O)N1CCc2ccccc21)c1ccc(C(C)C)cc1	-9%
Cc1cc(Nc2cccc(C(=O)O)c2)n2nc(C)nc2n1	-2%
Cc1cccc(NC(=S)N/N=C/c2ccc(Cl)c([N+](=O)[O-])c2)c1	0%
Nc1nnc(CC(=O)N/N=C/c2ccc(-c3ccc(F)cc3)o2)s1	-5%
COc1cc(/C=C/C(=O)OCC(=O)N2CCCCCC2)ccc1OCC#N	-1%
Cc1sc2ncnc(SCC(=O)NC3CC3)c2c1C	-4%
O=S1(=O)CC(N2CCCCC2)C(N2CCCCC2)C1 (centres undefined)	3%
COc1ccc(-c2csc3nc(C)n(-n4cccc4)c(=O)c23)cc1	-16%
O=C(c1cccc(NS(=O)(=O)c2ccc(Br)cc2)c1)N1CCN(c2ccccc2O)CC1	-6%
O=C(NCCC(=O)N1CCOCCOCCOCCOCC1)OCc1ccccc1	-14%
c1ccc(Nc2nnc(-c3cccc4ccccc34)o2)cc1	3%
Cc1ccn(C(=O)c2ccc(NC(=O)C3CC3)cc2)n1	u
CNC(=O)c1[nH]cnc1C(=O)N[C@@H](C)C(=O)OC(C)(C)C	-9%
O=[N+]([O-])c1cc([N+](=O)[O-])c(Oc2c(F)ccc(F)c2F)cc1NN1CCCCC1	u
CCOC(=O)[C@H]1[C@H]2COc3ccc(Cl)cc3[C@@H]2N2C(=O)c3cc(Cl)ccc3NC(=O)[C@@]12C	5%
C/C=C(/C)C(=O)Nc1cccc(C2=NOC3(C2)C[C@@H](C(N)=O)N(C(=O)/C=C/CC)C3)c1 (some centres undefined)	-17%
CC(C)c1ccc2oc(=O)cc(CN3CCCCC3)c2c1	-9%
Cc1ccc(CS(=O)(=O)CCC(=O)NCCCOC(C)C)cc1	-10%
CCOC(=O)CSc1nc2sc3c(c2c(=O)n1-c1ccc(OC)cc1)CCN(C)C3	12%
CCCC1(C)NC(=O)c2ccccc2O1 (centres undefined)	-9%
CCCCc1nn2c(=O)cc(COC(=O)c3ccc(NC(=O)C(CC)CC)cc3)nc2s1	3%
CCc1ccc(-c2nn(Cc3ccccc3)cc2C(=O)NCC2CCCO2)cc1 (centres undefined)	4%
CN(Cc1ccccc1)C(=O)CCC1CCN(C(=O)CCC(F)(F)F)CC1	-9%
Cc1c(C(=O)OC2CCCCC2)[nH]c2c1C(=O)CC(c1ccc(F)cc1)C2 (centres undefined)	-20%
CCOCCCNC(=O)c1oc2ccc3c(c2c1C)C(O)CC(C)(C)O3 (centres undefined)	-2%
Cc1cccc(CCNC(=O)CCS(=O)(=O)c2ccc(Br)cc2)c1	-7%
Cc1ccc(NC(=O)Cn2nc(C(=O)O)c3ccccc3c2=O)c([N+](=O)[O-])c1	26%
COC(=O)C1C(O)=CC(=O)CC1C (centres undefined)	-18%
CCOC(=O)C1=C(C)OC(N)=C(C#N)C1c1cc(Cl)c(OCC(N)=O)c(OC)c1 (centres undefined)	3%
Cc1cc(Cl)ccc1OCC(=O)OCC(=O)NC1CCS(=O)(=O)C1 (centres undefined)	-6%
O=C(/C=C/c1cccc([N+](=O)[O-])c1)NC(=S)Nc1cccc(NC(=O)c2ccccc2Cl)c1	-20%
CCCCCCCNC(=O)C1(CC2CC(c3cccc(Br)c3)=NO2)CCN(C(=O)OC(C)(C)C)CC1 (centres undefined)	-16%
Cc1ccc(S(=O)(=O)NCc2csc(-c3cccs3)n2)cc1	-22%
O=C(Nc1ccccc1N1CCOCC1)c1ccc(Cl)c(S(=O)(=O)NCc2ccco2)c1	-10%
COc1cc(OC)cc(-c2cc3nc(C)c(CCC(=O)O)c(=O)n3[nH]2)c1	-17%
CCOC(=O)C1Oc2ccccc2C(c2cccc3ccccc23)=C1C(=O)OC (centres undefined)	-1%&-20%
Cc1ccc2cc(CN(CCN3CCOCC3)C(=O)NCc3ccccc3)c(=O)[nH]c2c1C	-3%
COCCN(C(=O)COC(=O)c1cc2ccccc2cc1O)c1c(N)n(Cc2ccccc2)c(=O)[nH]c1=O	-3%
Carrying on.
SMILES	VDR inhibitor
Fc1ccc(NC(=S)N2CCCC(c3ccccc3)=N2)cc1	14%
CN(C)CCCOc1nc2c(c(=O)n(C)c(=O)n2C)n1C	10%
Cn1cccc1C(=O)N1CCc2ccccc2C1	11%
Cc1cccc(C(=O)OCC(=O)NCCN2C(=O)CSC2=O)c1[N+](=O)[O-]	11%
Nc1cc(=O)[nH]c(SCc2ccccc2Cl)n1	-26%
Cc1c(C(=O)N(C)C2CCCCC2)sc2nc3ccc(N)cc3n12	-28%
C=CCn1c(Cc2csc(N)n2)nnc1SCc1ccc(C(=O)OC)cc1	3%
Cc1c(NC(=O)c2coc(=O)c(Br)c2)c(=O)n(-c2ccccc2)n1C	2%
Cn1c(=O)c2[nH]c(N=NN3CCCCC3)nc2n(C)c1=O	12%
O=C(COC(=O)c1cc2ccccc2cc1O)NC1CCCCC1	8%
CC1CC1C(=O)OCC(=O)Nc1ccc(Cl)cn1 (centres undefined)	2%
CN(C(=S)NC1CCCCC1)C1(c2ccccc2Cl)CCCCC1=O (centres undefined)	-20%
O=C(COCc1nc2ccccc2c(=O)[nH]1)NC1CCCC1	-11%
Cn1c(=O)c2c(nc(Br)n2CCCc2ccccc2)n(C)c1=O	-9%
Nc1ncnc2c1cnn2C1CC(O)C(CO)O1 (centres undefined)	-17%
O=C(CCn1cnnn1)Nc1ccccc1	-7%&17%
Cc1nnc(SCC(=O)c2cc(C)n(-c3ccc4c(c3)OCO4)c2C)s1	-15%
S=c1[nH]nc(-c2cccnc2)n1/N=C/c1ccc(Br)s1	-15%
O=C(CSc1nnc(-c2cccs2)o1)Oc1ccccc1	3%
O=C(NCCCn1ccnc1)c1ccc2ccccc2c1	-6%

An excerpt of these results, bar-delimited.
SMILES | VDR inhibitor
CCCCN1C(=O)N(c2ccc(Cl)cc2)C(C)(O)CC1(C)C (centres undefined) | 4%
CC(O)CCC(=O)NNC1CC(=O)N(c2ccccc2)C1=O (centres undefined) | -15%
Cn1c(=O)c2[nH]c(N=NN3CCCCC3)nc2n(C)c1=O | 12%
CSc1ccccc1NC(=O)CN(C)CC(=O)Nc1ccc(N2CCOCC2)cc1 | 8%
CN(C)S(=O)(=O)c1ccc(-c2cn3ccccc3n2)cc1 | -17%
Cc1ccc2cc(CN(CCN3CCOCC3)C(=O)NCc3ccccc3)c(=O)[nH]c2c1C | -3%

Carrying on.
SMILES	VDR inhibitor
CN1CC=C2C(C#N)=C(N)C(C#N)(C#N)[C@H](c3cccs3)[C@H]2C1	u
COc1ccc(-c2noc(CSc3nc4ccccc4[nH]3)n2)cc1	u
O=C(NCCC1CCCCN1S(=O)(=O)c1ccc(F)cc1)C(=O)Nc1ccccc1F (centres undefined)	5%
CC(C)c1ccccc1NC(=S)NCC1(N(C)C)CCCCC1	-5%
CCN(C(=O)c1cccc(Br)c1)C1CCS(=O)(=O)C1 (centres undefined)	-19%
Fc1ccc(N=c2ssnc2Cl)c(F)c1	35µM*
Cc1ccc(/C=N/NC(=O)CSc2nc3ccccc3o2)cc1	79µM*
COc1cc(O)c2c(c1)oc(=O)c1c3cc(O)c(O)cc3oc21	u
CC1(C)NC(=O)N(CCCCOc2ccc(Cl)cc2C=O)C1=O	-1%
COc1ccc(CNC(=O)CN(Cc2ccc(C)cc2)C(=O)c2csnn2)cc1	1%
COc1ccc(C(=O)Nc2ccc(Nc3ccccc3)cc2)cc1[N+](=O)[O-]	-3%
C[C@H]1CCCC(=O)CCC/C=C/c2c(O)cc(O)cc2C(=O)O1	-8%
COc1ccc(-n2c3c(cc(-c4nc(-c5ccc(C)cc5)cs4)c2=O)C(=O)CC(C)(C)C3)cc1	-13%
CO/N=C/C(C#N)=C/c1cc(C(=O)c2ccccc2)cn1C	-16%
COc1ccccc1CNC(=O)c1cccn1-c1nnc(N2CCCCC2)s1	20%
COc1cccc(-n2c(-c3ccccc3)c[nH]c2=S)c1	-10%
CC(N)(C(=O)O)c1ccc(C(=O)O)cc1 (centres undefined)	2%
CCOC(=O)CC1C(=O)NCCN1C(=O)c1c(F)cccc1F (centres undefined)	12%
Cc1ccccc1CNC(=O)CCNS(=O)(=O)c1ccc(OC(F)(F)F)cc1	4%
Cc1ccsc1/C=N/NC(=O)CNC(=O)c1ccc(S(=O)(=O)N2CCOCC2)cc1	-3%
Cc1cc(C)c(-c2c(N)cc(Br)cc2Br)c(N)c1	13%
CS(=O)(=O)N1CCC(C(=O)Nc2ccc(OCc3ccccc3)cc2)CC1	1%
Cc1cc(OCCn2cc(C(=O)c3ccco3)c3ccccc32)ccc1Cl	-6%
Cc1cc(N2C(=O)C3C4CCC(C4)C3C2=O)no1 (centres undefined)	-8%
CCOC(=O)c1c(C)oc2nc(C)nc(N3CCN(c4cccc(C)c4C)CC3)c12	15%
Cc1cccc(C)c1NC(=O)CSc1nnc(-c2ccccc2)n1Cc1ccc2c(c1)OCO2	-4%
COc1ccc(CCN2CN(S(=O)(=O)c3ccccc3)c3nc4ccccc4nc32)cc1OC	-34%
O=C(Sc1ccc(Cl)cc1)c1ccccn1	u
Cc1oc(C(=O)O)cc1COc1ccccc1Cl	-15%
COc1ccc(NC(=O)CC2C(=O)N(c3ccc(OC)cc3)C(=O)N2CCc2cccs2)cc1 (centres undefined)	2%

6 compounds from above, sorted by length of the SMILES, ascending.
SMILES	VDR inhibitor
Clc1ccc2nc(N3CCN(c4ccccc4)CC3)sc2c1	14%
Fc1ccc(NC(=S)N2CCCC(c3ccccc3)=N2)cc1	14%
Fc1ccc(N2CCN(c3ccc4c(C(F)(F)F)cc(C(F)(F)F)nc4n3)CC2)cc1	-3%
O=[N+]([O-])c1cc([N+](=O)[O-])c(Oc2c(F)ccc(F)c2F)cc1NN1CCCCC1	u
COCCN(C(=O)COC(=O)c1cc2ccccc2cc1O)c1c(N)n(Cc2ccccc2)c(=O)[nH]c1=O	-3%
C/C=C(/C)C(=O)Nc1cccc(C2=NOC3(C2)C[C@@H](C(N)=O)N(C(=O)/C=C/CC)C3)c1 (some centres undefined)	-17%

Following part.
SMILES	VDR inhibitor
N#Cc1c(Sc2ncc(C(F)(F)F)cc2Cl)nsc1C/C=N\OCc1c(F)cccc1Cl	u
NS(=O)(=O)c1ccc(NC(=O)CSC2CCCCC2)cc1	u
CCCCCOC(=O)C1[C@H]2C(=O)N(Cc3cccs3)C[C@]23C=C[C@H]1O3 (some centres undefined)	2%
C=CCN1C(=O)NC2(CCCCC2)C1=O	-6%
COc1ccc(N2C(=O)CN=C2Nc2nc(C)cc(C)n2)cc1	6%
Cc1ccccc1Nc1c(-c2ccc(N3CCOCC3)cc2)nc2cnccn12	4%
COC(=O)COc1cccc2c(=O)n(CC(=O)NCc3ccccc3)ccc12	15%
